Bioassay records: PubChem BioAssay, ICCB-Longwood Screening Facility, Harvard Medical School
HCMV UL50-53 inh – inhibitors of HCMV UL50-UL53 nuclear egress complex interaction; inhibition, % (concentration not given with the values); actives 0.15% (n = 190,000); AID 1918969; HTRF UL50-UL53 interaction, normalized percent inhibition;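 active = both replicates at 50% or more, plus weaker picks with an unusually low signal ratio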;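 note: stock transfer was 100 nL into about 20 µL; 0% = negative control wells and 100% = wells with untagged competitor protein; inactives centre near -12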
GIV-Gai inh – GIV-Galpha-i interaction inhibition. AID 1224905. Galpha-i3/FITC-GIV peptide fluorescence polarization, 90 min; hits give low values; scaled: aluminum fluoride 0%, vehicle 100%. P08753. percent of control (FP), % (concentration not given with the values). actives 0.42% (n = 210,000);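 active = replicate mean at 85% of control or lower, very high polarization wells dropped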;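 note: wells of about 15 µL received 100 nL stock; the first replicate is given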
Target sequence (P08753 whole entry, looked up): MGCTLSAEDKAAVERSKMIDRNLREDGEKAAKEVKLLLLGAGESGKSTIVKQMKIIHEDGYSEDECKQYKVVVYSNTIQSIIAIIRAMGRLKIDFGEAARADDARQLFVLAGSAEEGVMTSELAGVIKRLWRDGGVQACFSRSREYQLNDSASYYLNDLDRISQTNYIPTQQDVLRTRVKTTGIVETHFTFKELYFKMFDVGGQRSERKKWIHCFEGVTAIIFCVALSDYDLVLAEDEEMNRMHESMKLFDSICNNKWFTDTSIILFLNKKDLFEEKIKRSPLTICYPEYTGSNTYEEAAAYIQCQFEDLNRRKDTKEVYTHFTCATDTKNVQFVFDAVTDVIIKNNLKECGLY
Sa growth 42C – S. aureus growth inhibition. S. aureus RN4220 growth, OD600, 20 h, 42 °C; hits give low values. relative growth, % (concentration not given with the values). actives 0.53% (n = 170,000). AID 720641;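 active = growth at 42 °C up to 50% and 20 or more points under that at 30 °C, or under 10% at both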;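 note: 300 nL library stock went into each well; scaled to the means of positive and negative controls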
Sa growth 42C second temp – further read-out of Sa growth 42C, marked with its call; relative growth, %; measured here: growth at 30 °C;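 optical density after 20 h as mean of two plates; 100% = untreated growth and lower means inhibition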
* = called active by the depositor; . = no result given.

SMILES | HCMV UL50-53 inh | GIV-Gai inh | Sa growth 42C | Sa growth 42C second temp
CC(C)CCNC(=O)c1c2c(nc3ccccc13)C(=O)N(C1CCCCC1)C2 | . | 98 | 89 | 91
O=C1OC(c2ccc(Br)cc2)=N/C1=C\N1CCCCC1 | -11 | 103 | 102 | 91
Cc1ccc(S(=O)(=O)N2CCC(O)CC2C)cc1 (configuration not stated) | 2 | 95 | 94 | 95
Cc1ccccc1CSc1nc2nc[nH]c2c(=O)[nH]1 | -35 | 102 | . | .
CCOc1ccccc1NCc1nc2nc(C)cc(C)n2n1 | -23 | 110 | . | .
CCNc1nc(NCC)n2c(SCC(=O)N(c3ccccc3)c3ccccc3)nnc2n1 | 1 | . | 97 | 94
COc1cc(/C=C2\C(=O)NC(=O)N(c3ccccc3)C2=O)ccc1OCc1ccc(C(=O)O)cc1 | -14 | 103 | . | .
O=C(Nc1ccc(Cl)c(Cl)c1)N1CCC(O)CC1 | 0 | 110 | 101 | 95
CC1=C(C(=O)c2ccccc2)C(c2ccccc2C)NC(=O)N1 (configuration not stated) | -10 | . | 120 | 101
Cc1nnc(N2CCN(C(=O)Nc3ccc(Cl)cc3)CC2)c2nn(-c3ccccc3)c(C)c12 | 11 | 107 | . | .
O=C(NCC1CCCO1)C1c2ccccc2C(=O)N1C1CCCCCC1 (configuration not stated) | . | 100 | 90 | 88
C=CCNc1nnc(SCC(=O)N2CCC(C(N)=O)CC2)s1 | -24 | 101 | 84 | 82
COc1ccc(C2Nc3cc(C)ccc3O2)cc1OC (configuration not stated) | -26 | 104 | 77 | 54
CCc1cccc(NC(=O)Cn2c(=O)n(CCCCCC(=O)NCc3ccc(F)cc3)c(=O)c3sccc32)c1 | -2 | 101 | 93 | 93
COc1ccc2c(c1)[C@@]1(C)CCC[C@](C)(CO)C1CC2 (some centres not stated) | 4 | . | 38 | 51
CCN(CC)CCN1C(=O)c2ccccc2NC1c1ccc(Br)cc1 (configuration not stated) | . | 103 | 92 | 63
COc1ccccc1CNC(=O)C1CCCN(c2nc3ccccc3n3cccc23)C1 (configuration not stated) | -11 | 96 | 115 | 73
CN(C)S(=O)(=O)c1ccc2c(c1)nc(C(F)(F)F)n2CCC(=O)Nc1ccccc1F | -39 | 111 | . | .
Cc1cc(NC(=O)CSC2=NN3CCCC(=O)N=C3S2)no1 | -24 | 99 | 85 | 81
N#CC(C#N)=CN1CCC(C(=O)c2ccccc2)CC1 | -12 | 105 | 92 | 86
O=C(NC(=O)c1ccccc1)Nc1ccccc1 | -12 | . | 101 | 96
COc1ccc(C(=O)ON=C2CSC(C)SC2)cc1 (configuration not stated) | -31 | 100 | 91 | 87
COC(=O)c1cccc(OCC(O)CNC2CCN(Cc3ccccc3)CC2)c1 (configuration not stated) | -15 | . | 96 | 96
CC(CCc1ccccc1)NC(=O)CN1CCN(S(=O)(=O)c2cccs2)CC1 (configuration not stated) | 4 | . | 94 | 93
CCN(c1cccc(C)c1)S(=O)(=O)c1ccc2[nH]cc(C(=O)NCCc3ccccc3)c(=O)c2c1 | . | 100 | 101 | 85
Cc1cc(=O)nc2c3ccccc3n(CC(=O)NCCCN3CCC(Cc4ccccc4)CC3)n12 | 9 | 115 | . | .
Cc1cc(C)c(NC(=O)C(C)Sc2nc3c(c(=O)[nH]2)CCCC3)c(C)c1 (configuration not stated) | -30 | 97 | . | .
COCC(C)NCc1cccc(Oc2ccccc2)c1 (configuration not stated) | -16 | 106 | 111 | 95
Nc1nc(CCOc2ccc(F)cc2)cs1 | -28 | 100 | 115 | 89
CC(=O)c1c(C)oc2c1cc(NS(=O)(=O)c1ccc(Br)cc1)c1ccccc12 | . | 101 | 110 | 79
CC(C)COC(=O)/C=C/c1ccccc1 | 90 | 102 | 100 | 110
CC(C)(C)C1NC(C(=O)O)CS1 (configuration not stated) | -4 | 102 | 86 | 90
COc1ccccc1C(=O)N/C(=C\c1ccccc1)C(=O)O | . | 105 | 108 | 79
COc1c(Cl)cc(C(=O)N2N=N2)cc1Cl | -5 | 106 | 98 | 98
CSc1nnc(C(C)(C)C)c(=O)n1/N=C/c1c(O)ccc2ccccc12 | . | 104 | 115 | 88
Cc1ccc(/C=C2/Sc3ccc(C(=O)NCCN4CCOCC4)cc3NC2=O)cc1 | . | 101 | 97 | 71
COc1cccc(C2CC(=O)NC(NC(=O)c3cccc(Cl)c3)=N2)c1OC (configuration not stated) | -17 | 105 | 100 | 85
CC(C)/C=C1\CC/C(=C\c2ccccn2)C1=O | -22 | 93 | 70 | 71
C=Cc1ccc(Cn2nc3n(C(C)C)c(=O)c4ccc(C(=O)NC5CCCC5)cc4n3c2=O)cc1 | -9 | 109 | . | .
COCn1c(=O)[nH]c2ccccc21 | -38 | 102 | 97 | 80
Cc1cc2c(cc1S(=O)(=O)Nc1cccc(C#N)c1)OCC(=O)N2 | . | 96 | 90 | 79
O=C(Nc1ccc(S(=O)(=O)Nc2ncccn2)cc1)c1sc2ccccc2c1Cl | -19 | 102 | . | .
Cc1ccc(C=Nc2ccccc2Br)o1 | -3 | . | 81 | 96
CCOC(=O)/C=C1\SCC(=O)N1Cc1nc(N)nc(Nc2ccccc2C)n1 | -30 | . | 82 | 97
Cc1ccc(C2c3[nH]c4ccccc4c3CCN2C(=O)CCC2CCCC2)cc1 (configuration not stated) | . | 99 | 92 | 91
Cc1cccc(Nc2nc3ccccc3nc2-n2nc(C)cc2C)c1 | . | 104 | 72 | 90
O=C(O)c1ccc(-n2cnc3ccccc32)cc1 | -24 | . | 76 | 89
COCCCn1c(SCc2cccc(F)c2)nc2c(-c3ccccc3)cn(C)c2c1=O | 2 | 106 | . | .
CC(C)NC(=S)N1CCN(c2ccc(N3CCOCC3)nn2)CC1 | . | 101 | 97 | 86
COC(=O)c1ccccc1Oc1ccccc1OC | -12 | 99 | 98 | 105
Cn1nc(CC#N)c(C#N)c1N | . | 103 | 100 | 87
CCCn1c(C)cc(C(=O)CN2C(=O)NC3(CCCCCC3)C2=O)c1C | -30 | . | 97 | 95
COc1ccc(NC(=O)CSC2=Nc3ccccc3N=C(c3ccccn3)C2)cc1 | -44 | 104 | . | .
CCOc1ccc(-n2c(=O)c3c(C)c(C(=O)N(C)C)sc3n(CC(=O)Nc3c(C)cc(C)cc3C)c2=O)cc1 | . | 97 | 127 | 80
O=C(O)CNS(=O)(=O)c1cccs1 | -3 | 109 | 96 | 100
O=CN1CCN(S(=O)(=O)c2ccc(F)c(F)c2)CC1 | -30 | . | 91 | 86
CCc1cccc2c(C(=O)COC(=O)c3c(C)noc3C)c[nH]c12 | -8 | . | 102 | 91
CCOC(=O)CSc1nc2ccccc2n2c(C)nnc12 | -58 | 102 | 103 | 82
Cc1cccc(OCC(=O)Nc2cc(-c3ccccc3F)nn2-c2ccccc2)c1 | . | 103 | 87 | 87
CC1CCN(C(=O)COC(=O)c2ccccc2C(=O)c2ccccc2)CC1 | -23 | . | 92 | 89
Remaining list, next part
SMILES | HCMV UL50-53 inh | GIV-Gai inh | Sa growth 42C | Sa growth 42C second temp
O=C1c2ccccc2C(=O)C1C1=Nc2ccccc2NC(c2ccccc2)C1 (configuration not stated) | -5 | . | 96 | 91
CS(=O)(=O)c1ccc2nc(NC(=O)CN3C(=O)CCC3=O)sc2c1 | -1 | 106 | . | .
CCN(CC)c1nc(=S)nc(NC(C)(C)C)[nH]1 | -5 | 107 | 123 | 82
COc1cccc(NC(=O)CSc2nc(-c3ccccc3)no2)c1 | -7 | 102 | . | .
Cc1ccc(CSc2nnc(-n3c(=O)c(C#N)cc4c(=O)n5cc(C)ccc5nc43)s2)cc1 | -41 | 100 | 101 | 85
COc1ccccc1N1C(=O)N(c2ccc(C)cc2)C2CS(=O)(=O)CC21 (configuration not stated) | -11 | 99 | . | .
O=c1oc2ccc3ccccc3c2cc1-c1nnc(Nc2cccc(F)c2)s1 | -34 | 109 | 102 | 88
CCOC(=O)C1=C(C)NC(=O)NC1C1CC=CCC1 (configuration not stated) | 16 | 100 | 106 | 86
COC(=O)c1ccc(CC(C#N)(Cc2ccc(C(=O)OC)o2)C(=O)Nc2ccc(OC)c(OC)c2)o1 | -24 | . | 75 | 87
COc1ccc(CSC2=NCN(C3CC(C)CC(C)(C)C3)CN2)cc1 (configuration not stated) | -58 | 98 | 91 | 86
Cc1[nH]c2ccccc2c(=O)c1Br | 3 | 107 | 95 | 99
COc1cc(C=NCCN=Cc2ccc(O)c(OC)c2)ccc1O | -19 | 104 | 103 | 102
COc1cc(N=CC2=C(O)c3ccccc3C2=O)cc(OC)c1 | . | 99 | 135 | 84
O=c1/c(=C\c2ccc(OCc3ccc(Cl)cc3Cl)cc2)sc2nc3ccccc3n12 | -7 | 99 | . | .
C=CCc1cccc(C=NC(Cc2cnc[nH]2)C(=O)O)c1O (configuration not stated) | 1 | . | 133 | 83
CCOc1ccc2nc(NS(=O)(=O)c3cc(-c4noc(C)n4)sc3C)sc2c1 | -22 | 103 | . | .
CCc1ccc(N2C(=O)N(CC(=O)N3CCCCCC3)c3ccccc3S2(=O)=O)cc1 | -23 | 104 | 94 | 85
CC(C)NC(=O)n1nccc1-c1cc(-c2ccccc2)no1 | -3 | 96 | 86 | 84
CC(/C=C/c1ccco1)=N\NC(=O)Cc1cccc2ccccc12 | -26 | 120 | 101 | 67
CCOC(=O)c1cc(=O)c2cc(F)ccc2[nH]1 | -61 | 100 | . | .
Cc1ccc(/C=C/C(=O)OCC(=O)c2cc(C)n(CC3COc4ccccc4O3)c2C)o1 (configuration not stated) | -10 | . | 103 | 94
CCOC(=O)c1c(NC(=O)C23CC4CC(CC(C4)C2)C3)sc(C(=O)Nc2cccc(Cl)c2C)c1C | -2 | 101 | . | .
C=CCNC(=O)c1ccc2c(c1)C1C3CCC(C3)C1C(c1ccccc1)N2 (configuration not stated) | . | 99 | 77 | 72
CCOc1cc(C2C(C(=O)OC)=C(C)NC3=C2C(=O)c2ccccc23)cc(Br)c1OCC (configuration not stated) | 6 | 108 | 100 | 95
Cn1c2ccccc2c2cnn(CC(=O)N3CCN(c4ccc(Cl)cc4)CC3)c(=O)c21 | -12 | 100 | . | .
O=C(CC(NCc1ccco1)C(=O)O)Nc1cccc(Cl)c1 (configuration not stated) | -36 | 96 | 93 | 84
Cc1ccc(/C=C/C(=O)Nc2sc3c(c2C#N)CCCC3)cc1 | -2 | . | 95 | 108
O=C(/C=C/c1ccc(S(=O)(=O)N2CCCCCC2)cc1)N1CCN(C(=O)c2ccccc2)CC1 | -41 | . | 66 | 88
O=C(Nc1ccccc1C(=O)O)c1ccccc1 | -17 | 98 | 105 | 54
COCn1nnc2ccccc21 | 1 | 114 | 107 | 90

Full records as entered above:
`CCOC(=O)c1c(NC(=O)C23CC4CC(CC(C4)C2)C3)sc(C(=O)Nc2cccc(Cl)c2C)c1C` is entered as HCMV UL50-53 inh = -2; GIV-Gai inh = 101; Sa growth 42C = .; Sa growth 42C second temp = .
`O=C(Nc1ccccc1C(=O)O)c1ccccc1` is entered as HCMV UL50-53 inh = -17; GIV-Gai inh = 98; Sa growth 42C = 105; Sa growth 42C second temp = 54

The list continues:
SMILES | HCMV UL50-53 inh | GIV-Gai inh | Sa growth 42C | Sa growth 42C second temp
C=CCn1c(SCC2CNC(c3ccc(N(C)C)cc3)O2)nnc1C1CCCCC1 (configuration not stated) | -37 | . | 90 | 90
CC1(C(=O)NC2CCCC2)Cn2c(ccc2-c2ccccc2)C(=O)N1Cc1ccccc1 (configuration not stated) | -2 | 103 | . | .
COC(=O)c1c(-c2c(Cl)cccc2Cl)noc1C(=O)N/N=C/c1ccccn1 | -52 | 109 | 74 | 41
C=CCN1C(=O)N(c2ccccc2)C(=O)C1CC(=O)Nc1ccc(CC)cc1 (configuration not stated) | -32 | 105 | 95 | 88
CCCN1CCN(C(=O)c2c(C)nn(Cc3ccc(C)cc3)c2Cl)CC1 | -32 | . | 67 | 93
CCc1cc2c(NCC3CCCO3)nc(C)nc2s1 (configuration not stated) | -5 | . | 95 | 91
COc1ccc(-c2nc3sc(CCNC(=O)C(=O)Nc4ccc(C)cc4C)c(C)n3n2)cc1 | . | 96 | 77 | 91
COc1cccc(CNC(=O)Cc2cccc(OC)c2)c1 | 2 | . | 103 | 95
O=C(Nc1ccc2c(c1)OCO2)N1CCN(c2ccc(-c3noc(C4CCCCC4)n3)cc2)CC1 | -4 | 104 | . | .

Entries listed so far that have an NH in an aromatic ring:
SMILES | HCMV UL50-53 inh | GIV-Gai inh | Sa growth 42C | Sa growth 42C second temp
Cc1ccccc1CSc1nc2nc[nH]c2c(=O)[nH]1 | -35 | 102 | . | .
CCN(c1cccc(C)c1)S(=O)(=O)c1ccc2[nH]cc(C(=O)NCCc3ccccc3)c(=O)c2c1 | . | 100 | 101 | 85
Cc1cc(C)c(NC(=O)C(C)Sc2nc3c(c(=O)[nH]2)CCCC3)c(C)c1 (configuration not stated) | -30 | 97 | . | .
COCn1c(=O)[nH]c2ccccc21 | -38 | 102 | 97 | 80
Cc1ccc(C2c3[nH]c4ccccc4c3CCN2C(=O)CCC2CCCC2)cc1 (configuration not stated) | . | 99 | 92 | 91
CCc1cccc2c(C(=O)COC(=O)c3c(C)noc3C)c[nH]c12 | -8 | . | 102 | 91
CCN(CC)c1nc(=S)nc(NC(C)(C)C)[nH]1 | -5 | 107 | 123 | 82
Cc1[nH]c2ccccc2c(=O)c1Br | 3 | 107 | 95 | 99
C=CCc1cccc(C=NC(Cc2cnc[nH]2)C(=O)O)c1O (configuration not stated) | 1 | . | 133 | 83
CCOC(=O)c1cc(=O)c2cc(F)ccc2[nH]1 | -61 | 100 | . | .
